# HSV augment = HSV replication enhancement; HSV replication augmentation in cells, fold increase; maximum fold increase; AID 1956; hit rate 0.005% among 220,000;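 active = peak rise of 1.5-fold or more in the series; tested in PC3 cells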;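 also: first round at 10 µM; read as green reporter fluorescence; hits show the peak of a series up to 25 µM; 1 = signal of infected wells without compound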
# GALR2 agonist = activates the human galanin receptor 2; O43603; GALR2-expressing cells, agonist activation read-out; activation, %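 (tested at 5 µM)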; hit rate 0.48% among 140,000;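 active = above mean plus 3 SD of all compounds, about 5% in these data, not always enough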;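 also: 0% = vehicle buffer wells and 100% = reference agonist at full effect; tested in CHO reporter cells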
# RGS16-Gao = modulates binding between human RGS16 and Galphao; bead-based flow cytometry RGS16-Galphao binding, fluorescence; actives lie on both sides; binding response (% of control), % at 10 µM; hit rate 0.38% among 220,000; AID 1441;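 active = below 25% or above 175%, edge rows of some plates excepted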;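 also: Galphao activated by GDP with aluminum fluoride before binding; 100% = wells without compound and 0% = beads without RGS; some results beyond the cut were filed as inactive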
# Target sequence (O15492 whole entry, looked up): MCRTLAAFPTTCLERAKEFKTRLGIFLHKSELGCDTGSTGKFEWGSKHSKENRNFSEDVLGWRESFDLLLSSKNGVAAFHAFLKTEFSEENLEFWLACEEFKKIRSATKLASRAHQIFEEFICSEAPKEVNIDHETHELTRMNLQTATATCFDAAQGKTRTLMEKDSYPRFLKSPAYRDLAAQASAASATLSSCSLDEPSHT
# Target sequence (P09471 whole entry, looked up): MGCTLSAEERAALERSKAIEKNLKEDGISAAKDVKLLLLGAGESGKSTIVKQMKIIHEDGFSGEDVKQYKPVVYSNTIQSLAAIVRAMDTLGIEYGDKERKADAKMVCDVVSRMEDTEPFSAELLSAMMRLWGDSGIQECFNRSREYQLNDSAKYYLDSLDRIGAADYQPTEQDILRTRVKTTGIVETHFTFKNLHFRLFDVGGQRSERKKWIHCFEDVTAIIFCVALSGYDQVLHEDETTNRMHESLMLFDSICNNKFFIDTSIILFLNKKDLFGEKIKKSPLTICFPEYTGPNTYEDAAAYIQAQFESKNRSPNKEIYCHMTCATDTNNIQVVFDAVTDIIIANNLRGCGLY
# Insulin prom inh = TRM-6 insulin promoter activity inhibition; hit rate 0.9% among 130,000; TRM-6 cells (human fetal islet line), insulin promoter-eGFP reporter, imaging; reporter expression induced with tamoxifen; inhibition, % at 2 µM;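 active = inhibition above the mean plus 3 SD, with well images judged a real hit on visual review, cut at about 60% in these data, passing the limit was not always enough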
# PKD1 kinase inh = inhibitors of human PKD1 kinase; PKD1 kinase fluorescence polarization assay; hit rate 0.056% among 200,000; AID 797; inhibition, %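 (about 10 µM by stock and volumes)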;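 active = inhibition of 50% or more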;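 also: controls were vehicle for no effect and a reference inhibitor for full effect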
# Insulin prom inh cell count = also measured in Insulin prom inh; calls as there; normalized cell count, %; measured here: cell count, toxicity; reference of the scale not given here;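 cells exposed to compound for 48 h; stained nuclei by imaging scaled within each plate; lower means fewer cells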
# HSV augment primary fold = further read-out of HSV augment, marked with its call; fold increase; compound at 10 µM; measured here: primary screen fold increase 10 uM; tested in PC3 cells;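 GFP signal in the first replicate; 1 = infected wells without compound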
# Numbers without * were called inactive; i = inactive; · = no result given.
# Values run as follows: Insulin prom inh cell count	HSV augment primary fold	RGS16-Gao	Insulin prom inh	PKD1 kinase inh	HSV augment	GALR2 agonist
CCc1nnc(NC(=O)CCC(=O)NCCc2ccc(OC)c(OC)c2)s1
  125	0.93	104	-7	4	i	-0.9
CC1(C)CC(=O)C2=C(C1)N(Cc1cccnc1)C(=O)C2(NC(=O)c1cccnc1)C(F)(F)F (centres undefined)
  142	0.97	97	33	-7	i	-1.1
O=C(C[n+]1ccc(C(=O)N/N=C/c2ccc(Cl)cc2Cl)cc1)c1ccccc1
  90	0.92	77	-7	3	i	0.0
COc1cc(NC(=O)CN2C(=O)CN(C)C2=O)c(C)cc1[N+](=O)[O-]
  ·	0.87	100	·	-1	i	·
COc1cccc(CN(C)C(=O)c2cc(COc3c(F)cccc3F)on2)c1
  ·	0.84	71	·	4	i	·
NC(=O)[C@@H]1CC2(CC(c3cccc(NC(=O)CC(c4ccccc4)c4ccccc4)c3)=NO2)CN1C(=O)c1ccc(Cl)cc1 (some centres undefined)
  ·	0.84	103	·	·	i	·
Cc1ncsc1CCSc1n[nH]c(=O)n1-c1ccccc1
  114	1.1	100	-58	1	i	-0.5
CSc1nc2ccc(NS(=O)(=O)c3ccc4c(c3)OCCO4)cc2s1
  101	1	65	-11	12	i	-0.3
CCOC(=O)c1[nH]nc2c1C(=O)N(Cc1ccccc1)C2=O
  ·	1.1	103	·	-2	i	-3.2
CCOC(=O)CC(=O)CSc1nc(CC)c(C)cc1C#N
  ·	0.98	103	·	·	i	·
CC1(C)CC(=O)C(C(C2=C(O)CC(C)(C)CC2=O)c2ccc(Br)s2)C(=O)C1 (centres undefined)
  ·	0.83	87	·	-7	i	0.4
Cc1cnc(C(=O)OCC(=O)Nc2ccc(C)c(S(=O)(=O)N3CCCCC3)c2)cn1
  ·	1	102	·	-2	i	1.4
O=C(Cn1nnc(-c2ccccc2)n1)c1ccccc1
  99	0.89	105	-12	-7	i	-1.0
COCCN(C(=O)CSc1nc2nc(C)cc(C)n2n1)c1c(N)n(Cc2ccccc2)c(=O)[nH]c1=O
  40	1	104	-43	-7	i	·
N#CCSCC(=O)Nc1ccc(Cl)cc1
  101	0.91	92	46	-11	i	-1.3
Cc1ccc(C2OC34CCCCCC3C(C#N)(C(=N)O4)C2(C#N)C#N)cc1 (centres undefined)
  92	1.1	100	-40	-3	i	0.5
COC(=O)c1cc2c(ccn2-c2ccc(F)cc2)n1Cc1ccc(OC(C)=O)cc1
  172	0.85	105	-27	8	i	-1.3
CCCC(C(=O)NCc1ccco1)N(C(=O)CNS(=O)(=O)c1ccc(Cl)cc1)C1CCCC1 (centres undefined)
  131	1	65	-29	-9	i	-1.9
c1cncc(-c2nc(-c3ccco3)cs2)c1
  ·	1.1	82	·	-3	i	-1.8
CCC(C)NC(=O)c1ccc(C2SCC(=O)N2Cc2ccccc2)cc1 (centres undefined)
  76	1	109	8	3	i	·
C/C=C(\C)C(=O)N1CC2(CC(c3cccc(NC(=O)CCCCC)c3)=NO2)C[C@@H]1C(N)=O (some centres undefined)
  ·	0.99	106	·	·	i	·
COc1ccccc1N1CCN(C(=O)CSc2nnc(NC(=O)C(C)C)s2)CC1
  ·	0.94	101	·	3	i	·
COc1cc(Cl)c(C)cc1NC(=O)CN(C)Cc1cccc(OC)c1OC
  ·	0.83	94	·	3	i	·
CCCn1c(SCCC(=O)O)nc2ccccc21
  ·	1	103	·	4	i	·
O=C(NCC1CCCO1)c1ccc(Cn2c(=S)[nH]c3ccccc3c2=O)cc1 (centres undefined)
  84	1	98	9	1	i	·
COc1ccc(Cn2c(=O)[nH]c3cc(C(=O)NC4CCCC4)ccc3c2=O)cc1
  ·	1	100	·	56*	i	·
CCCCn1c(=O)n(CC(=O)Nc2ccc(C)c(Cl)c2)c(=O)c2c1ncn2Cc1ccco1
  ·	0.65	96	·	2	i	-1.2
CCCCN1C(=O)Nc2ccccc2S1(=O)=O
  151	1	97	-14	4	i	-0.4
CCOc1ccc(S(=O)(=O)N(C)c2ccc(OCC(=O)NCc3cccnc3)cc2)cc1
  ·	0.9	91	·	-1	i	·
Cc1oc(-c2cccs2)nc1CS(=O)CC(=O)NCCCN1CC(C)CC(C)C1 (centres undefined)
  ·	0.84	110	·	4	i	-1.6

# Compound profiles, from the list above:
# O=C(C[n+]1ccc(C(=O)N/N=C/c2ccc(Cl)cc2Cl)cc1)c1ccccc1 across the screens: Insulin prom inh cell count = 90; HSV augment primary fold = 0.92; RGS16-Gao = 77; Insulin prom inh = -7; PKD1 kinase inh = 3; HSV augment = i; GALR2 agonist = 0.0
# CCCC(C(=O)NCc1ccco1)N(C(=O)CNS(=O)(=O)c1ccc(Cl)cc1)C1CCCC1 (centres undefined) across the screens: Insulin prom inh cell count = 131; HSV augment primary fold = 1; RGS16-Gao = 65; Insulin prom inh = -29; PKD1 kinase inh = -9; HSV augment = i; GALR2 agonist = -1.9

# (list continues)
# Values run as follows: Insulin prom inh cell count	HSV augment primary fold	RGS16-Gao	Insulin prom inh	PKD1 kinase inh	HSV augment	GALR2 agonist
CC1=CCC(C(=O)O)(C(=O)N/N=C/c2cccnc2)C(c2ccccc2)C1 (centres undefined)
  ·	0.96	99	·	-4	i	·
Cc1cc2nnn(-c3nnc(-c4ccccc4)c4ccccc34)c2cc1C
  128	1.1	106	29	-22	i	-2.5
CCOC(=O)C1CCCN(Cc2nc(Cc3cccc(F)c3)no2)C1 (centres undefined)
  ·	0.93	89	·	-6	i	·
O=C1CCCS(=O)(=O)c2ccccc21
  102	1	98	-124	1	i	·
O=S(=O)(c1ccccc1C(F)(F)F)N1CCC(n2cnc3ccccc32)CC1
  101	0.88	83	10	-8	i	-3.0
N#CC(C(=O)C1CCCCC1)c1nc2ccccc2[nH]1 (centres undefined)
  77	0.87	95	-190	-6	i	-0.2
O=C(/C=C/c1ccccc1Cl)NC(=S)Nc1ccccc1C(=O)NC1CCCCC1
  ·	0.78	121	·	14	i	-1.7
O=C(C#Cc1cccc([N+](=O)[O-])c1)c1ccccc1
  46	1	89	-267	1	i	-2.9
O=C(NC1CC1)C1=C[C@H](c2csc3ccccc23)C[C@H](OCCCCO)O1
  ·	0.79	91	·	-6	i	·
CC(C)(C)C(=O)Cn1nc(Cl)nc1Cl
  160	0.95	101	28	-5	i	·
COc1cccc(-c2noc(-c3ccc(Cl)nc3)n2)c1
  125	0.97	101	-47	-7	i	·
O=C(Cc1ccc(-n2c(=O)c3ccccc3n(Cc3ccccc3F)c2=O)cc1)NCC1CCCO1 (centres undefined)
  103	0.91	94	21	-5	i	-0.5
CC1CCC2C(C1)Nc1c(C(=O)O)cccc1C2(C)C (centres undefined)
  ·	0.91	101	·	-11	i	·
Cc1cc(C2C(=O)C(C(=O)c3ccc(Cl)cc3)C(=O)CC2(C)C)on1 (centres undefined)
  ·	0.97	101	·	-10	i	-1.2
O=C(CP(=O)(c1ccccc1)c1ccccc1)Nc1nc2ccccc2s1
  ·	1.1	102	·	·	i	·
CCCCCCCCCOC1OC(CO)C(O)C(O)C1NC(C)=O (centres undefined)
  103	1	101	55	-7	i	-0.5
CC1(C)NC(=O)N(CCCCOc2cccc(C(F)(F)F)c2)C1=O
  65	0.98	95	22	-1	i	-0.9
CCOC(=O)C1CCN(C(=O)/C(C)=C\c2ccccc2)CC1
  109	1.1	101	-24	-2	i	·
CC(C)CCCCCCNC(=S)Nc1ccc(S(=O)(=O)N2CCOCC2)cc1
  56	0.69	123	-20	-13	i	-0.2
Cc1cc(S(=O)(=O)Nc2c(C(=O)O)[nH]c3ccccc23)ccc1F
  87	0.99	102	43	4	i	-1.4
Cc1nc2cc(NC(=O)COc3ccccc3C#N)ccc2n1-c1ccccc1
  71	0.78	103	-65	1	i	-0.8
O=C1CCCC(O)=C1C1C2=C(CCCC2=O)OC2=C1C(=O)CCC2
  109	1	122	-10	2	i	·
Cc1ccc(-c2n[nH]c(=O)c3ccccc23)cc1S(=O)(=O)Nc1ccccc1
  86	0.95	101	47	13	i	-0.5
Cc1oc2c(CN3CCCC3)c(O)ccc2c(=O)c1Oc1ccccc1Br
  ·	1	100	·	-1	i	0.2
O=C(Nc1ccc(Cl)cc1)Nc1cccc(C(=O)O)c1
  116	1.1	100	33	-3	i	·
O=C(Nc1ccon1)C1CCN(S(=O)(=O)c2cccs2)CC1
  154	0.94	105	8	3	i	-0.9
COC(=O)c1sccc1NC(=O)c1ccc(C)o1
  94	0.99	94	-8	1	i	-0.9
CCOC(=O)C1=C(C)NC(=O)NC1c1ccc(NC(C)=O)cc1 (centres undefined)
  125	1.1	103	12	5	i	-5.6
O=C(O)C1=C[C@@H](c2coc3ccccc3c2=O)C[C@@H](OCCCCO)O1
  ·	0.92	102	·	-3	i	·
Clc1ccccc1CSc1nnc(-c2cccnc2)n1Cc1ccco1
  210	0.86	92	0	2	i	-1.1
O=C(NNc1ccc(Cl)nn1)c1ccc(Cl)cc1
  ·	0.8	102	·	-2	i	0.0
O=C(CCSc1nnc2scc(-c3ccccc3)n12)Nc1nc(-c2ccccc2)ns1
  ·	0.9	103	·	-9	i	-2.2
COc1ccc(-c2nc(CSCC(=O)N3CCN(C)CC3)c(C)o2)cc1OC
  ·	1.5	101	·	-16	i	-1.7
Nc1c(C(=O)NCCC2=CCCCC2)sc2ccc(S(=O)(=O)N3CCCCC3)cc12
  88	0.89	100	50	-18	i	-1.3
CSCC[C@H](NC(=O)OC(C)(C)C)C(=O)N/N=C/c1cccc2nccnc12
  ·	1	101	·	·	i	·
CC(C)C(=O)NC(C)C(c1cccs1)N1CCN(C)CC1 (centres undefined)
  86	0.92	102	0	-2	i	-1.8
CCC(=O)Nc1nnc(Sc2ccc(N(C)C)cc2)s1
  ·	·	94	·	-5	·	-1.5
CCOc1cc(CNc2ccc3c(c2)CCC3)ccc1O
  72	1.2	92	-26	7	i	-1.7
COc1ccc(OC)c(C2CC(=O)c3c([nH]c(C(=O)OCC4CCCO4)c3C)C2)c1 (centres undefined)
  ·	0.79	105	·	-13	i	-0.9

# 4 entries from above, bar-delimited:
Structure | Insulin prom inh cell count | HSV augment primary fold | RGS16-Gao | Insulin prom inh | PKD1 kinase inh | HSV augment | GALR2 agonist
CC1CCC2C(C1)Nc1c(C(=O)O)cccc1C2(C)C (centres undefined) | · | 0.91 | 101 | · | -11 | i | ·
CC1=CCC(C(=O)O)(C(=O)N/N=C/c2cccnc2)C(c2ccccc2)C1 (centres undefined) | · | 0.96 | 99 | · | -4 | i | ·
O=C(NC1CC1)C1=C[C@H](c2csc3ccccc23)C[C@H](OCCCCO)O1 | · | 0.79 | 91 | · | -6 | i | ·
COc1ccc(OC)c(C2CC(=O)c3c([nH]c(C(=O)OCC4CCCO4)c3C)C2)c1 (centres undefined) | · | 0.79 | 105 | · | -13 | i | -0.9

# High-throughput results (PubChem)
